# GLA inh pH 4.5: blocks human alpha-galactosidase A at pH 4.5 | P06280 | purified enzyme, 4-MU-alpha-Gal fluorescence, pH 4.5 | activity change, negative = inhibition, % at 105 µM | 230,000 tested, under 10 active | AID 1467; inconclusive = small, poorly fitted or top-dose-only inhibition, or a rising curve; inactive = flat fitted curve, though single readings scatter; no compound was filed as active;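 note: 0% = full activity with enzyme and -100% = basal without enzyme; dose as in the result columns while the protocol names 77 µM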
# miR-21 reporter: miR-21 reporter, rising signal; 340,000 tested, under 10 active; AID 2288; HeLa miR-21 FLuc reporter, luciferase, 48 h; Potency, µM (doses to about 38.3 µM), inactives show at the highest dose reporter change, positive = more light; active = well fitted rising curve with a large enough effect; inconclusive = small, poorly fitted or top-dose-only effect; inactive = no such curve, though single readings can be large or run the other way;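 note: % of control where 0% means no effect; miR-21 action dims this reporter so a rising signal means less miR-21 action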
#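 HeLa miR-21-FLuc reporter line, endogenous miR-21; 2000 cells/well in DMEM/10% FBS; compound titration up to ~40uM final, 48 h, 37 degree Celsius; luciferase detection reagent, 15 min lysis, CCD luminescence.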
# Rango release inh: prevents RanGTP from dissociating the Rango-importin beta complex; Biochemical FRET Rango-importin beta, RanGTP-induced dissociation; 340,000 tested, 0.071% active; O95149+P62826; Potency, µM (doses to about 46.1 µM), for inactives: at the top dose activity change, negative = inhibition; AID 540253; active means falling FRET ratio curve, often poorly fitted, with flat reads before Ran was added; inconclusive means other falling curves, or compound fluorescence or quenching; inactive means flat or rising ratio curve;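 note: potency is the fitted concentration of half-maximal effect; % of control where 0% means no effect; nearly all actives have a fitted effect of over 45% in size; -100% = wells without RanGTP and RCC1; the record marks most hits as doubtful in a second field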
#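 Compounds sat 5 min at room temperature with 0.1 uM Rango biosensor plus 0.25 uM importin beta, then FRET pre-read. RanGTP-RCC1 (0.6 uM Ran, 2mM GTP, 0.2 uM RCC1) added for 45 min, and the CFP/YFP post-read measured blocked complex dissociation.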
# Rango complex inh: prevents formation of the Rango-importin beta complex; Potency, µM (titrated, usually from 92.2 µM), for inactives: at the top dose inhibition of complex formation; Q14974; Rango CFP/YFP FRET sensor + importin beta, 45 min; 340,000 tested, 0.031% active; active = rising FRET ratio curve, often small or poorly fitted; inconclusive = mostly compound fluorescence or quenching in the first reads; inactive = flat curves in all reads;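 note: potency is the fitted concentration of half-maximal effect; 0% = DMSO wells and 100% = buffer wells lacking importin beta; nearly all actives have a fitted effect of over 15% in size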
# Target sequence (Q14974 whole entry, looked up): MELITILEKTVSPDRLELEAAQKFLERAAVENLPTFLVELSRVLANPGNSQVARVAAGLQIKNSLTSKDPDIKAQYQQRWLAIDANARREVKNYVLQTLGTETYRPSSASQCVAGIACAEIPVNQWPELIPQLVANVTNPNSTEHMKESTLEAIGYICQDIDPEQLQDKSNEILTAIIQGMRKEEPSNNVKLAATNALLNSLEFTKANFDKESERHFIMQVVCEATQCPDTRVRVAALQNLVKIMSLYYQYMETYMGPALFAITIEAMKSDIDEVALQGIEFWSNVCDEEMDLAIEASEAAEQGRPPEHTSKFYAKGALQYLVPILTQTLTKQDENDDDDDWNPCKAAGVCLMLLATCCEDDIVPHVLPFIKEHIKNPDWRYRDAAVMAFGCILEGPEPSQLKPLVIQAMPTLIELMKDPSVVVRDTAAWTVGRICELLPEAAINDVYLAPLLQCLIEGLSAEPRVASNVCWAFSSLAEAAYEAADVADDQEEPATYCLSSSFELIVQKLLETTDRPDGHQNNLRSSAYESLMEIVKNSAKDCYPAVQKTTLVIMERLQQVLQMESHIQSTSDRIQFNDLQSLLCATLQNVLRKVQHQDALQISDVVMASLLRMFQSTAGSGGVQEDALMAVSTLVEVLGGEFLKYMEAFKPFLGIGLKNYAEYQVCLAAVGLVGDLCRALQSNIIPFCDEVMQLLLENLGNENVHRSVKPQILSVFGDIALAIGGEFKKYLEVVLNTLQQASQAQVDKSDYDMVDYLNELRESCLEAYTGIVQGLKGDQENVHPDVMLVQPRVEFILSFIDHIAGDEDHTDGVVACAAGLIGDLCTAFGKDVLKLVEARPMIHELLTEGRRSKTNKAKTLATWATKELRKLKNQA
#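 Inhibition scored from the CFP 486 nm/YFP 530 nm FRET ratio 45 min after adding 0.125 microM importin beta to 50 nM Rango biosensor preincubated 5 min with compound (room temperature, PBS with DTT, Tween-20, BSA). No-importin wells as positive control.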
# * hit, by the source's call; ? = inconclusive; / = not tested or not shown; [ ] = dose if it differs, or a comment. Some of the compounds tested; rates above refer to the full screens.
SMILES,GLA inh pH 4.5,miR-21 reporter,Rango release inh,Rango complex inh
COCCCNC(=O)C[C@H]1C[C@H](C(=O)N2CCCCC2)[C@@]2(CCc3ccccc3)c3[nH]c4cc(-c5ccco5)ccc4c3CCN2C1=O,/,/,-14%,?
O=C(c1cccs1)N1CCN(c2nc3c(F)cc(F)cc3s2)CC1,/,/,-3%,2.5%
N/C(=N\OC(=O)c1cccc(Br)c1)c1ccc(Br)cc1,-22,-9%,-11%,-2.4%
Cc1c(S(=O)(=O)N2CCOCC2)c(=O)n(C)c(=O)n1C,2,-3%,1%,-0.7%
COc1cc(O)c2c(c1)OC(C)(C)CC2=O,-4,-4%,-14%,2.9%
CCCn1nc2cc(C(=O)N(CC)c3ccc(OC)cc3)ccc2c1OCC,6,-7%,-8%,-2.8%
COc1cccc(CNCCN2CCOCC2)c1OC,15,-2%,8%,2.6%
O=C(NC(CC(=O)N1CCN(c2ccc([N+](=O)[O-])cc2)CC1)c1ccccc1)c1ccccc1Cl (centres undefined),-9,-2%,-9%,?
CCCCN(CCCNc1ncnc2nc[nH]c12)c1ccccc1,0,5%,-16%,3.4%
CCN(CC)S(=O)(=O)c1ccc(S(=O)(=O)Nc2cc3c(cc2C(C)=O)OCO3)cc1,-4,-2%,13%,5.6%
CC1CC(C)CN(C(=O)CNS(=O)(=O)c2cccs2)C1 (centres undefined),/,0%,-1%,0.9%
COC(=O)[C@H](CC(C)C)NS(=O)(=O)N[C@@H](CC(C)C)C(=O)OC,/,/,45%,5.5%
CCn1cc(/C=N/NC(=O)c2ccc3c(c2)OCO3)cn1,6,-19%,-6%,-1.1%
CC1CCN(C(=O)COC(=O)c2ccc3ccccc3n2)CC1,/,/,-1%,0.7%
COc1ccc(/C=N/OCC(=O)Nn2c(C)nc3ccccc3c2=O)cc1,-2,-9%,3%,-3.1%
CC(=O)NC1(C(F)(F)F)NC(=O)N(CC(C)C)C1=O (centres undefined),0,-10%,19%,0.0%
COc1ccc(NC(=S)N2CCN(S(=O)(=O)c3ccc(OC)cc3)CC2)cc1,/,0%,-6%,-6.8%
O=C(/C=C/c1c(Cl)cccc1Cl)n1cccn1,-6,-4%,-6%,?
CC1CCN(c2cc(N3CCC(C)CC3)c([N+](=O)[O-])cc2/C=C(\C#N)c2nn(-c3ccccc3)c(N)c2C#N)CC1,-19,-2%,-23%,3.7%
Cn1c(SCC(=O)N/N=C/C=C\c2ccccc2[N+](=O)[O-])nc2ccccc21,3,-1%,3%,5.6%
O=CN(Cc1ccco1)C1(C(=O)NC2CCCCC2)CCCCC1,-9,-5%,-15%,4.8%
O=c1[nH]c(-[n+]2ccc3ccccc3c2)c(/C=N/N=C(\[O-])c2ccccc2)s1,/,-29%,?,?
CC(C)Cn1c(=O)c2c(c3ccccc31)OC(C)C(=O)N2 (centres undefined),3,-3%,6%,-0.6%
CC1=CC(C)(C)[N+](C)(C)c2ccccc21,-18,2%,9%,-1.7%
COC(=O)c1ccc(CN2CCN(CCC(C)C)C(CCO)C2)cc1 (centres undefined),4,-4%,2%,-3.7%

# (list continues)
SMILES,GLA inh pH 4.5,miR-21 reporter,Rango release inh,Rango complex inh
C=C1CC2(CC(c3ccccc3)OC(c3ccccc3)C2)OC1=O (centres undefined),/,/,1%,-5.9%
COc1ccc(C(=O)NCC(=O)OCC(=O)NC(=O)NC2CCCCC2)cc1OC,-6,0%,1%,0.3%
O=C(CS(=O)(=O)c1ccc(Br)cc1)N1CCOCC1,/,-5%,-10%,3.6%
CC(C)c1ccc(Oc2cccc3c2S(=O)(=O)N(C2CCCC2)CC(COCc2ccccc2)O3)cc1 (centres undefined),/,/,-8%,-1.3%
Nc1c(C(=O)N/N=C/c2cccnc2)oc2nc(-c3ccco3)cc(-c3ccco3)c12,2,20%,?,?
Cc1ccc(-c2csc3nc[nH]c(=O)c23)c(C)c1,/,0%,-17%,-3.5%
CNc1ccc(S(=O)(=O)NC)cc1[N+](=O)[O-],-32,-24%,-7%,-1.2%
CC(C)OC(=O)c1c(NC(=O)CCn2nnc3ccccc32)sc2c1CCCC2,-3,-9%,0%,-0.8%
CCn1c2ccccc2c2cc(NC(=O)c3ccc(C)c([N+](=O)[O-])c3)ccc21,2,-5%,34%,-0.9%
COc1cnc(-c2ccccn2)nc1Oc1ccc(Cl)c2ccccc12,-2,14%,-21%,-4.5%
Cc1nc2ccccc2c2oc(C(=O)N3CCN(C(=O)c4ccco4)CC3)cc12,8,2%,44%,-2.0%
O=c1[nH]c2ccc(NC(=S)NC3CCCCC3)cc2[nH]1,1,0%,0%,0.1%
CCN(CC)c1ccc(C=C2C(=O)OC3(CCCCC3)OC2=O)cc1,-5,2%,-18%,?
O=C(CNC(=O)c1cccc(-n2cnnn2)c1)Nc1ccc(F)c(F)c1,/,/,1%,3.6%
CC1CCN(S(=O)(=O)c2cc(C(=O)NC3(C)CCS(=O)(=O)C3)ccc2Br)CC1 (centres undefined),/,/,8%,-1.0%
COc1ccc(OCCCn2cccc2/C=C2/C(=N)N3OC(C)=CC3=NC2=O)cc1,-10,-17%,-11%,?
Cc1cc(N2CCN(C(=O)Nc3ccc(F)cc3F)CC2)c2ccccc2n1,/,-6%,-8%,0.6%
CCOC(=O)c1ccc(NCCc2ccc(OC)c(OC)c2)c(N)c1,/,-7%,11%,-3.1%
CCOc1ccc(-c2cc(C(=O)N3CCCC3)c3ccccc3n2)cc1,/,-20%,3%,2.0%
C#CCOCCOCCOCCNc1nc(N2CCN(C(=O)CCCCCCCCCCNC(=O)[C@@H](CCSC)n3cc(CCO)nn3)CC2)nc(N2CCN(C(=O)CCCCCCCCCCNC(=O)[C@H](CCC(=O)O)n3cc(CCCCCN)nn3)CC2)n1,/,/,8%,0.4%
COc1nccc(NCc2ccccc2)c1C#N,/,/,?,7.7%
O=C(O)c1cc(-c2ccccc2)n[nH]1,8,-12%,8%,0.4%
COCCN1C(=O)c2ccc(C(=O)NCc3cccnc3)cc2C1=O,-1,0%,-22%,-0.3%
COC(=O)c1ccn(-c2nc(-c3ccco3)cc(C(F)(F)F)n2)n1,3,-2%,11%,2.4%
O=C(C1CCN(CCCc2ccccc2)CC1)N1CCCCC1,-11,1%,4%,3.9%

# Next results follow.
SMILES,GLA inh pH 4.5,miR-21 reporter,Rango release inh,Rango complex inh
COc1ncnc2c1oc1ccccc12,7,-62%,-2%,-3.0%
CCOC(=O)CSc1ccc2nnc(CCNS(=O)(=O)c3ccc(C)cc3)n2n1,9[21.1 µM],-2%,?,0.6%
Cc1ccc(C)c(S(=O)(=O)NCc2ccc(C(=O)NCc3ccccn3)cc2)c1,1,-5%,11%,-4.7%
C=CC[C@@H](CC(=O)N[C@@H](CO)Cc1ccccc1)C(=O)NCCOC(=O)[C@@H](CC=C)Cc1ccc(F)cc1,/,/,14%,-3.8%
CC1CC(C)CN(C(=O)c2cc3c(s2)CCC3)C1 (centres undefined),1,-23%,4%,0.1%
NC(=O)C1CCN(C(=O)NC(=O)c2ccccc2)CC1,/,-2%,-10%,2.2%
COc1ccccc1NC(=O)c1ccc(-n2ccnc2)c([N+](=O)[O-])c1,/,-1%,-7%,-0.3%
COc1cc(C2CC(=O)OC3=C2C(=O)CC(C)(C)C3)cc(OC)c1OC (centres undefined),1,3%,22%,-0.9%
COCCCNC(=O)/C(C#N)=C/c1c(N2CCCCCC2)nc2ccccn2c1=O,/,0%,-9%,?
COc1ccc(C2c3c(oc4ccccc4c3=O)C(=O)N2CCN2CCOCC2)cc1OC (centres undefined),/,/,0%,-0.5%
S=C(NCCN1CCOCC1)C(=S)NCCN1CCOCC1,/,/,-8%,-0.5%
CCCCn1c(CNC(=O)C23CC4CC(CC(C4)C2)C3)nnc1SC(C)CC (centres undefined),4,19%,8%,1.3%
C/C(CCc1ccccc1)=N\NC(=O)C1C2CCCCC21 (centres undefined),-4[21.1 µM],-15%,9%,1.5%
O=C(Nc1cccc2ccccc12)OC1C=CS(=O)(=O)C1 (centres undefined),8,25%,0%,0.0%
CC(C)[C@H](NC(=O)[C@@H]1CSC2c3ccccc3C(=O)N21)C(=O)NC1CCCC1 (some centres undefined),/,-2%,-13%,7.0%
O=C(Nc1nnc(SCc2ccccc2)s1)c1cccs1,-5,-34%,7%,1.6%
S=C(NCCc1ccccc1)NC1CC1,-5,-12%,-10%,-1.8%
Oc1ccc(Br)cc1/C=N/NC(=S)NCCc1ccccc1,/,25%,?,?

# 21 successive entries out of the list so far, for reference:
SMILES,GLA inh pH 4.5,miR-21 reporter,Rango release inh,Rango complex inh
C#CCOCCOCCOCCNc1nc(N2CCN(C(=O)CCCCCCCCCCNC(=O)[C@@H](CCSC)n3cc(CCO)nn3)CC2)nc(N2CCN(C(=O)CCCCCCCCCCNC(=O)[C@H](CCC(=O)O)n3cc(CCCCCN)nn3)CC2)n1,/,/,8%,0.4%
COc1nccc(NCc2ccccc2)c1C#N,/,/,?,7.7%
O=C(O)c1cc(-c2ccccc2)n[nH]1,8,-12%,8%,0.4%
COCCN1C(=O)c2ccc(C(=O)NCc3cccnc3)cc2C1=O,-1,0%,-22%,-0.3%
COC(=O)c1ccn(-c2nc(-c3ccco3)cc(C(F)(F)F)n2)n1,3,-2%,11%,2.4%
O=C(C1CCN(CCCc2ccccc2)CC1)N1CCCCC1,-11,1%,4%,3.9%
COc1ncnc2c1oc1ccccc12,7,-62%,-2%,-3.0%
CCOC(=O)CSc1ccc2nnc(CCNS(=O)(=O)c3ccc(C)cc3)n2n1,9[21.1 µM],-2%,?,0.6%
Cc1ccc(C)c(S(=O)(=O)NCc2ccc(C(=O)NCc3ccccn3)cc2)c1,1,-5%,11%,-4.7%
C=CC[C@@H](CC(=O)N[C@@H](CO)Cc1ccccc1)C(=O)NCCOC(=O)[C@@H](CC=C)Cc1ccc(F)cc1,/,/,14%,-3.8%
CC1CC(C)CN(C(=O)c2cc3c(s2)CCC3)C1 (centres undefined),1,-23%,4%,0.1%
NC(=O)C1CCN(C(=O)NC(=O)c2ccccc2)CC1,/,-2%,-10%,2.2%
COc1ccccc1NC(=O)c1ccc(-n2ccnc2)c([N+](=O)[O-])c1,/,-1%,-7%,-0.3%
COc1cc(C2CC(=O)OC3=C2C(=O)CC(C)(C)C3)cc(OC)c1OC (centres undefined),1,3%,22%,-0.9%
COCCCNC(=O)/C(C#N)=C/c1c(N2CCCCCC2)nc2ccccn2c1=O,/,0%,-9%,?
COc1ccc(C2c3c(oc4ccccc4c3=O)C(=O)N2CCN2CCOCC2)cc1OC (centres undefined),/,/,0%,-0.5%
S=C(NCCN1CCOCC1)C(=S)NCCN1CCOCC1,/,/,-8%,-0.5%
CCCCn1c(CNC(=O)C23CC4CC(CC(C4)C2)C3)nnc1SC(C)CC (centres undefined),4,19%,8%,1.3%
C/C(CCc1ccccc1)=N\NC(=O)C1C2CCCCC21 (centres undefined),-4[21.1 µM],-15%,9%,1.5%
O=C(Nc1cccc2ccccc12)OC1C=CS(=O)(=O)C1 (centres undefined),8,25%,0%,0.0%
CC(C)[C@H](NC(=O)[C@@H]1CSC2c3ccccc3C(=O)N21)C(=O)NC1CCCC1 (some centres undefined),/,-2%,-13%,7.0%

# Sorted by value in Rango complex inh (highest first): some entries from above
SMILES,GLA inh pH 4.5,miR-21 reporter,Rango release inh,Rango complex inh
CC(C)[C@H](NC(=O)[C@@H]1CSC2c3ccccc3C(=O)N21)C(=O)NC1CCCC1 (some centres undefined),/,-2%,-13%,7.0%
C/C(CCc1ccccc1)=N\NC(=O)C1C2CCCCC21 (centres undefined),-4[21.1 µM],-15%,9%,1.5%
CCCCn1c(CNC(=O)C23CC4CC(CC(C4)C2)C3)nnc1SC(C)CC (centres undefined),4,19%,8%,1.3%
